Screening data from PubChem BioAssay.
ALR inh: inhibitors of human ALR sulfhydryl oxidase, primary screen, biochemical, H2O2 detection, HRP-luminol luminescence, single point; FAD-linked sulfhydryl oxidase ALR (Homo sapiens), P55789; purified ALR, DTT oxidation; inhibition, % (no concentration beside the values); 290,000 compounds, 3.8% hits;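 active means mean and each replicate at 75% or more; inconclusive means only one of the two met; inactive means neither met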;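 further: stock transfer was 7.5 nL into about 7.5 µL; 0% = neutral wells and 100% = wells with inactivated enzyme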
Target sequence (P55789 whole entry, looked up): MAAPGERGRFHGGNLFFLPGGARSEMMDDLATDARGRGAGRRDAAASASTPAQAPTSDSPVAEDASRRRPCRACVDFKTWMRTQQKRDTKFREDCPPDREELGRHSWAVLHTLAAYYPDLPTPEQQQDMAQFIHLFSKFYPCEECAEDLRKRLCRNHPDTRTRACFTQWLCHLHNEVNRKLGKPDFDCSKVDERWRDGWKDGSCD
E coli growth: E. coli growth inhibition, primary screen, OD600; Escherichia coli growth, 23 h; hits give low values; OD600 absorbance (no concentration beside the values); 330,000 compounds, 0.21% hits; AID 1053175, 2014;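 active means OD600 absorbance below the run mean of sample wells minus 3.6 SD, in any replicate, cut at about 0.56 in these data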;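 further: stock transfer was 300 nL into about 60 µL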
FGF22 binding: binders of human FGF22 protein, primary screen, FGF22 synaptogenesis inhibitor project, biophysical, thermal shift, single point; recombinant FGF22 thermal shift, SYPRO orange fluorescence; percent of sucrose octasulfate shift, DMSO zero; 340,000 compounds, 1.5% hits; calls only at 9.99 µM;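 active means melting point raised past a set limit in the mean and every replicate; inconclusive means no clear call; three in four hits are not shown here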
Ecoli rRNA inh: reduced GFP signal of wild-type E. coli, primary screen, bacterial rRNA inhibitor project, GFP/RFP fluorescence, OD600, single point; AID 720706, 2013; E. coli WT GFP vs humanized-ribosome RFP mutants, 24 h; hits give low values; DMSO median 0, no signal -100; 350,000 compounds, 1.6% hits; GFP signal change (wild-type ribosome), % (concentration not given with the values);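 active means significant combined selectivity score with lowered wild-type GFP, culture density cut under 30%, mutant RFP and density less affected; inactive means any of these conditions unmet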; further: one replicate is shown; some compounds called inactive have numbers as strong as hits
HNF4A DNA FP: change in binding of human HNF4A to DNA, primary screen, biochemical, fluorescence polarization, FITC-DNA; activity change, % at 10 µM; 360,000 compounds, 0.3% hits; Hepatocyte nuclear factor 4-alpha (Homo sapiens), P41235; 1 h; AID 1224865, 2016; in the data active means activity change above about 30%, passing the limit was not always enough;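 further: controls were the assay level and a saturating level of protein; the project sought stronger binding though the title names inhibitors; some compounds called inactive have numbers as strong as hits; positive values seem to mean higher polarization but the record does not say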
Target sequence (P41235 whole entry, looked up): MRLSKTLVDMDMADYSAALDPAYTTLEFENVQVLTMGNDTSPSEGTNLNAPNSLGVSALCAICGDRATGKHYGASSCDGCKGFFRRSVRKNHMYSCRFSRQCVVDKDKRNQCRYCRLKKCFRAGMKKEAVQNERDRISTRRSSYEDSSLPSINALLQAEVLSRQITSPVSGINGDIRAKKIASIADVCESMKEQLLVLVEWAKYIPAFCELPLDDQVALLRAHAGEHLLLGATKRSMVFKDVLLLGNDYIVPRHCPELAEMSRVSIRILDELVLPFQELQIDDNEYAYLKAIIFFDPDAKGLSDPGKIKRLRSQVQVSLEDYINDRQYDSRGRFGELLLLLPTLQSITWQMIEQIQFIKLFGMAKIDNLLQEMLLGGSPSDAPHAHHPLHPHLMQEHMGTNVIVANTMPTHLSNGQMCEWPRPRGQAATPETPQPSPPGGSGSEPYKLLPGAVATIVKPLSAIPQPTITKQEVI
Beta2AR agonist: beta2AR agonists driving receptor internalization, primary screen, cell-based, FAP fluorogen, flow cytometry; Am2.2-beta2AR cells; reference of the scale not given here; 340,000 compounds, 0.43% hits; response, % (no concentration beside the values);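 active means response above a set limit, near 3 SD of response in nonfluorescent compounds, cut at about 42% in these data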;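 further: stock transfer was 100 nL into about 11 µL; a reference agonist was the positive control; negative values mostly stem from fluorescent compounds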
Target sequence (P07550 whole entry, looked up): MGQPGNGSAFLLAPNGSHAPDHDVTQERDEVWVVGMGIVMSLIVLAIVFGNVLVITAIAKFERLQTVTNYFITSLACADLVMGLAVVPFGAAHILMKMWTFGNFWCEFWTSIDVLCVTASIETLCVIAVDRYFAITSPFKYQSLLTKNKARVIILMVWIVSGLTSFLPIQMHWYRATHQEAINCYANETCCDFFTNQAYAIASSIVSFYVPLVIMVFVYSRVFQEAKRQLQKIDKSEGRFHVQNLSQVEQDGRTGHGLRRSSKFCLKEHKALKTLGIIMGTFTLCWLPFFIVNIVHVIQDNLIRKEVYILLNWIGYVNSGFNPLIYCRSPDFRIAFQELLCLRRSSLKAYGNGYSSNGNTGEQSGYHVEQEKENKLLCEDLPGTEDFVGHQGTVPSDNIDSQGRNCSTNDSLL
UCH37 inh: inhibitors of human UCH37 deubiquitinase, primary screen, biochemical, Ub-AMC cleavage, fluorescence; Ubiquitin carboxyl-terminal hydrolase isozyme L5 (Homo sapiens), Q9Y5K5; purified proteasome/UCH37; inhibition, % (no concentration beside the values); 330,000 compounds, 0.33% hits;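 active means mean of two replicates above 20%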;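 further: 0% = compound-free wells with enzyme and 100% = wells lacking proteasome; stock transfer was 100 nL into about 20 µL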
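Reagent: Ub-AMC substrate; assay system: Proteasome-associated human UCH37 deubiquitinase; controls: no-proteasome and no-compound wells; read-out: % inhibition of Ub-AMC cleavage fluorescence; timing: 30 min preincubation with enzyme, 25 min cleavage at room temperature; signal: AMC fluorescence from Ub-AMC cleavage, excitation 355 nm, emission 460 nm; buffer or medium: Tris-HCl pH 7.4 plus ovalbumin, ATP-MgCl2, DTT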
Ecoli rRNA inh OD600: second read-out of Ecoli rRNA inh, no call of its own (marks repeat the call); OD600 change, %; measured here: OD600 growth;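 optical density of the mix in the first replicate; 0 = DMSO median and -100 = no signal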
Ecoli rRNA inh RFP: further read-out of Ecoli rRNA inh, marked with its call; RFP signal change, %; measured here: RFP humanized mutant strains;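 first replicate; 0 = DMSO median and -100 = no signal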
An asterisk follows results filed as active; i = inactive; ? = inconclusive; / = not tested or not shown; & = joins results of further samples.

SMILES	ALR inh	E coli growth	FGF22 binding	Ecoli rRNA inh	Ecoli rRNA inh OD600	Ecoli rRNA inh RFP	HNF4A DNA FP	Beta2AR agonist	UCH37 inh
c1ccc2c(CN3CCCCCCC3)c[nH]c2c1	10	0.67	/	/	/	/	5.3	1	6.3
O=C(CN1CCCCC1)NCC(=O)Nc1ccc(Br)cc1C(=O)c1ccccc1	-17	0.7	/	/	/	/	1.2	-18	4.8
Cc1cccc(C)c1-n1nnnc1C(c1ccccc1)N1CCC2(CC1)C(=O)NCN2c1ccccc1 (centres undefined)	/	/	i	0	0	3.0	-1.7	/	/
C[C@]12CC[C@H](O)CC1=CC(=O)C1C2CC[C@]2(C)C(=O)[C@H](O)CC12 (some centres undefined)	0	0.7	i	2	8	0.7	-0.5	-10	2.9
OC(c1ccc(F)cc1)C(c1ccccc1)N1CCOCC1 (centres undefined)	-2	0.66	/	/	/	/	-0.7	-4	3.0
CCC(C)N=Cc1c(O)n(-c2ccccc2)c(=O)[nH]c1=O (centres undefined)	-4	0.65	/	/	/	/	-0.2	1	0.8
C[C@]12CC[C@H](OS(=O)(=O)O)CC1=CC[C@@H]1[C@@H]2CC[C@]2(C)C(=O)CC[C@@H]12	16	/	i	-8&-13	-12&-12	0.5&0.7	-0.4&-2.8&0.0	-4&-7&9	2.9&1.8
O=c1[nH]c(=O)n(Cc2ccccc2)c(O)c1/C=C1\C=Nc2ccccc21	/	0.66	i	9	11	3.8	4.5	30	5.9
Cc1nc2ccccc2c(=O)n1-c1ccc(F)cc1F	-5	0.67	i	0	6	-1.2	-5.3	-3	0.9
Cc1c(NP(=O)(C(C)(C)C)C(C)(C)C)c(=O)n(-c2ccccc2)n1C	-8	0.66	i	9	5	1.0	-1.2	-4	1.9
Cn1c(O)c(C=Nc2cccc(C(F)(F)F)c2)c(=O)n(C)c1=O	0	0.68	i	5	2	-1.6	-2.5	7	1.8
CCc1nc2ccccc2c(=O)n1-c1ccc2ccccc2c1	-20	0.74	/	/	/	/	0.8	2	1.5
CCOc1ccccc1OCC(=O)Nc1ccc(Cl)cc1C(=O)c1ccccc1	1	0.69	i	10	-10	-1.1	-1.7	6	3.3
N[C@@H](CCl)C(=O)O	11	/	i	/	/	/	-3.1	3	/
O=[N+]([O-])/C=C1\NCCN1Cc1ccc(Cl)nc1	4	0.67	i	19&15	20&18	2.3&1.5	-2.5&4.6	-3&4	6.6

2 successive compounds already listed:
SMILES	ALR inh	E coli growth	FGF22 binding	Ecoli rRNA inh	Ecoli rRNA inh OD600	Ecoli rRNA inh RFP	HNF4A DNA FP	Beta2AR agonist	UCH37 inh
Cc1cccc(C)c1-n1nnnc1C(c1ccccc1)N1CCC2(CC1)C(=O)NCN2c1ccccc1 (centres undefined)	/	/	i	0	0	3.0	-1.7	/	/
C[C@]12CC[C@H](O)CC1=CC(=O)C1C2CC[C@]2(C)C(=O)[C@H](O)CC12 (some centres undefined)	0	0.7	i	2	8	0.7	-0.5	-10	2.9

(cont.)
SMILES	ALR inh	E coli growth	FGF22 binding	Ecoli rRNA inh	Ecoli rRNA inh OD600	Ecoli rRNA inh RFP	HNF4A DNA FP	Beta2AR agonist	UCH37 inh
O=C1NC(=O)N(c2ccccc2)C(=O)/C1=C/c1ccc(Sc2ccccc2)o1	97*	0.69	/	/	/	/	0.9	0	2.2
COc1cc(C(CN)CC(=O)O)ccc1O (centres undefined)	/	0.67	i	14	2	-3.8	2.0	-8	2.7
COc1ccc(C(=O)Nc2cccc(S(=O)(=O)NCc3ccco3)c2)cc1	-9	0.67	i	-10	0	6.6	0.3	2	1.5
CC(Cc1ccccc1)NCCC(=O)NC(C)Cc1ccccc1 (centres undefined)	-4	0.67	i	11	8	-3.6	-2.8	-7	2.5
COC(=O)C1=C(c2ccc(S(C)(=O)=O)cc2)C[C@@H]2CC[C@H]1N2C(=O)NCCCOC(C)C	/	/	i	7	14	0.3	0.4	-5	-0.4
Cc1nn(Cc2ccccc2)c(Cl)c1C(=O)OC(C)C(=O)Nc1ccc(F)cc1Cl (centres undefined)	-27	0.73	i	1	6	-1.5	-0.8	-6	3.3
CCOc1cc(CNCCc2c[nH]c3ccccc23)cc(Cl)c1OC	3	0.67	i	/	/	/	1.9	16	4.9
COC(=O)C1=C(c2ccc(F)cc2F)C[C@@H]2CC[C@H]1N2C(=O)NCc1ccc(F)cc1	-4	0.75	i	-4	-29	-4.0	5.4	0	1.4
CCOc1c(Cl)cc(CNCCc2c[nH]c3ccccc23)cc1OC	10	0.61	i	-7	-25	14	-0.7	8	7.0
CCCCn1c(=O)c(C(=O)NCCc2ccccc2)c(O)c2ccccc21	2	0.66	i	14	13	0.7	-0.8	3	4.6
COC(=O)C1=C(c2ccc3ccccc3c2)C[C@@H]2CC[C@H]1N2C(=O)N1CCCCC1	-6	/	i	-26	-45	-10	-3.0	3	2.1
O=c1c2ccccc2nc(-c2ccccc2)n1-c1nccs1	-1	0.69	i	-7	-2	-6.4	-3.0	-7	3.1
Fc1cccc(C2NCc3ccccc3-n3cccc32)c1 (centres undefined)	-3	0.65	i	1	1	0.4	8.1	2	3.8
c1cncc(C2CCCCN2Cc2ccc3c(c2)OCO3)c1 (centres undefined)	0	0.68	/	/	/	/	2.9	1	1.6
CC(=O)NCC1=C(c2cccc3ccccc23)C[C@@H]2CC[C@H]1N2Cc1ccco1	/	/	i	2	10	-2.5	-3.8	/	/
CCOc1ccc(-n2c(O)c(/C=C3\C=Nc4ccccc43)c(=O)[nH]c2=O)cc1	1	0.7	i	8	7	2.5	-7.6	7	7.7
COC(=O)C1=C(c2ccc(F)cc2OCc2ccccc2)C[C@@H]2CC[C@H]1N2C(=O)NCc1cccc(F)c1	-3	0.78	i	11	2	11	-0.5	12	2.6
CCCNc1nc(OC)nc(N2CC3CC(C2)c2cccc(=O)n2C3)n1 (centres undefined)	18	0.74	/	16	11	-5.9	0.7	1	3.3
O=C(c1ccccc1)C1NC1c1ccccc1 (centres undefined)	1	0.7	i	22	23	3.2	-2.5	-9	3.8
CCOP(=O)(OCC)OCC	-7	0.66	i	9	8	0.5	0.9	12	1.2
CCNCC1(c2ccc(OC)c(OC)c2)CCCC1	5	0.76	/	/	/	/	-2.4	2	0.8
Cc1cc(C(=O)Nc2ccc3c(c2)OCCO3)nn1C(C)(C)C	19	0.65	i	-12	-9	0.8	-0.8	2	2.1
CC1=[N+]([O-])C2(N)CCc3nonc3C2(O)C1 (centres undefined)	-9	0.72	/	/	/	/	2.9	-3	2.9
N#CC1c2ccccc2-n2nncc2CN1C(=O)c1ccccc1F (centres undefined)	/	/	i	10	10	0.1	-2.8	/	/
O=C(O)c1cn(Cc2ccccc2)nc1-c1ccccc1	33	0.73	i	6	6	2.7	-4.0	2	-1.6
C=C[C@H]1CN2CC[C@H]1C[C@H]2[C@H](O)c1ccnc2ccccc12	-17	/	i	5	11	2.0	-3.7	11	2.0
O=C(Nc1ccc2ccccc2c1)N1C[C@H]2C[C@@H](C1)c1cccc(=O)n1C2	-5	0.7	i	0	-6	-4.1	4.7	-6	-0.5
COc1ccccc1-n1c(O)c(C=NCCN2CCNCC2)c(=O)[nH]c1=O	-2	0.69	/	/	/	/	-2.7	6	-0.3
CC(=O)N1N=C2C3CCN(CC3)C2C1c1ccc(F)cc1 (centres undefined)	1	0.7	i	4	3	0.5	1.8	12	-1.6
Nc1c(C(=O)NC2CCCC2)c2nc3ccccc3nc2n1CC1CCCO1 (centres undefined)	25	/	/	/	/	/	-0.1	12	/
C[n+]1c(-c2ccccc2)cc(-c2ccc(O)cc2)cc1-c1ccccc1	?	0.68	i	19	-17	-6.8	0.0	-3	7.5
Cc1cc(Cc2c(O)[nH]c(=S)[nH]c2=O)ccc1OC(C)C	46	0.63	i	-3	-7	0.2	-3.8	10	1.1
CCOC(=O)c1c(C)n(C(C)C)c2ccc(OC)cc12	-4	0.69	i	-28*	-22*	2.3*	-6.2	15	2.7
CCOP(=S)(OCC)N1CCOCCOCCN(P(=S)(OCC)OCC)CCOCCOCC1	2	0.67	i	4	11	-0.6	-2.1	6	4.5
O=C(c1cc2ccccn2n1)N1CCC2(CC1)OCCO2	-2	0.73	/	/	/	/	1.2	7	1.6
Cc1nn(Cc2ccccc2)c(Cl)c1C(=O)NC1CCCc2ccccc21 (centres undefined)	4	0.67	i	2	5	3.0	3.4	-6	0.1
Cc1cc(OC(=O)N(C)C)n(-c2ccccc2)n1	-4	0.68	i	-6	7	-4.7	-1.4	-7	2.1
COc1cc(CN2CCCC(C(=O)c3sccc3C)C2)cc(Cl)c1O (centres undefined)	16	0.68	i	-12	-13	-2.0	1.7	4	5.2
CC(=O)N1CCC(N2CCCC(C(=O)c3cccc(Cl)c3)C2)CC1 (centres undefined)	-4	0.69	i	18	14	-0.3	3.0	-4	3.7
CC(C(N)=O)N1CC(c2ccccc2)CC1=O (centres undefined)	-4	0.73	/	/	/	/	-0.5	0	0.3
O=C(NC1CONC1=O)OCC(Cl)(Cl)Cl (centres undefined)	-7	0.69	i	9	7	1.7	-1.2	4	1.3
CCc1ccc(N2C(=O)NC(=O)/C(=C/c3cccn3CCOc3ccc(C)cc3)C2=O)cc1	-1	0.7	i	9	4	5.5	2.5	9	-28
COc1cc(C=C2C(=O)NC(=O)NC2=O)ccc1OS(=O)(=O)c1ccccc1[N+](=O)[O-]	/	0.72	i	-4	-2	-0.8	2.2	6	9.7
Cc1ccc2c(c1)C1CN(C)CCC1N2C(=O)/C(C#N)=C/c1ccc2c(c1)OCO2 (centres undefined)	5	0.71	/	/	/	/	6.8	5	4.3
O=C(Nc1ccccc1)NC1CC2CCC(C1)N2 (centres undefined)	-1	0.68	/	/	/	/	-2.6	-6	2.3
COc1ccc(N=Cc2c(O)n(CC3CCCO3)c(=O)[nH]c2=O)cc1 (centres undefined)	/	0.7	i	-1	3	-1.2	-2.1	-1	17
CCOc1ccc(-n2c(CC)nc3ccccc3c2=O)cc1	-3	0.71	i	1	3	-2.4	0.8	-17	-1.3
COc1ccc(C(C)=O)cc1CC(C(=O)c1ccc(C)cc1)N(C)C (centres undefined)	3	0.71	i	1	2	-1.5	3.1	-4	6.3
CC12CCC(O)CC1CCC1C2CCC2(C)C(C(=O)CC(O)C(F)(F)F)CCC12 (centres undefined)	/	/	i	-23	-21	-3.5	-3.3	-15	/
COc1ccccc1CCNCc1cc2c(cc1[N+](=O)[O-])OCO2	5	0.74	/	/	/	/	-3.6	14	1.1
COc1ccc2c(CCN)c[nH]c2c1	29	0.75	/	/	/	/	0.4	12	1.4

Pulled by compound from the entries so far:
SMILES	ALR inh	E coli growth	FGF22 binding	Ecoli rRNA inh	Ecoli rRNA inh OD600	Ecoli rRNA inh RFP	HNF4A DNA FP	Beta2AR agonist	UCH37 inh
COc1ccccc1CCNCc1cc2c(cc1[N+](=O)[O-])OCO2	5	0.74	/	/	/	/	-3.6	14	1.1
CC12CCC(O)CC1CCC1C2CCC2(C)C(C(=O)CC(O)C(F)(F)F)CCC12 (centres undefined)	/	/	i	-23	-21	-3.5	-3.3	-15	/
COc1ccc(N=Cc2c(O)n(CC3CCCO3)c(=O)[nH]c2=O)cc1 (centres undefined)	/	0.7	i	-1	3	-1.2	-2.1	-1	17

An excerpt. The share of hits here may be higher or lower than overall.
